PKD1 inh: PKD1 (human) kinase inhibition. inhibition, %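 (about 10 µM by stock and volumes)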. AID 797. Q15139. PKD1 kinase fluorescence polarization assay. 200,000 tested, 0.056% active;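 active = inhibition of 50% or more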;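 also: controls were vehicle for no effect and a reference inhibitor for full effect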
Target sequence (Q15139 whole entry, looked up): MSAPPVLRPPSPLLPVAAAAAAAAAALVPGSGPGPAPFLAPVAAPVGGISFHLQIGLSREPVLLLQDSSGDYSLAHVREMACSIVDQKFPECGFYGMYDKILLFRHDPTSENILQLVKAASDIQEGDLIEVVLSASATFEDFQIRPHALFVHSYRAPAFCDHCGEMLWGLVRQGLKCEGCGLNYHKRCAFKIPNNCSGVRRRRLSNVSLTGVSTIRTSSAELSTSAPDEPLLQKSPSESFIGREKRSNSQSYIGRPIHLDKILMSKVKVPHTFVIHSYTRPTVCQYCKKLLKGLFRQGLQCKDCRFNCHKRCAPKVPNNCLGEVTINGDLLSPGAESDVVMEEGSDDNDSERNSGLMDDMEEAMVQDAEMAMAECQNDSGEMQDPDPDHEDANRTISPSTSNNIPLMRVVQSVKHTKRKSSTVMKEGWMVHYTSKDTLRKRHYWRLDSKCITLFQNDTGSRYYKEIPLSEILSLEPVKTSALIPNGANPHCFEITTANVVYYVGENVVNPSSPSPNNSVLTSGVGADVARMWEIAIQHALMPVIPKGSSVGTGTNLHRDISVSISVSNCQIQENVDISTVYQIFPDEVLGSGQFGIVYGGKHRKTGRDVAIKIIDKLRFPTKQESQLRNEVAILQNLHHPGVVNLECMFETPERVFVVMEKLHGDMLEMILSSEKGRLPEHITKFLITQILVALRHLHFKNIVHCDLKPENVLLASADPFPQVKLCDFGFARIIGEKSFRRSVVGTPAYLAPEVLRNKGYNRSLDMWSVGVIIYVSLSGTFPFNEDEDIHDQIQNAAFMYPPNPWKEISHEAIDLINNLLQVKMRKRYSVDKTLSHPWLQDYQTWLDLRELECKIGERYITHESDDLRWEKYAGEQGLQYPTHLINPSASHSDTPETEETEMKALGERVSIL
HSV replic up: increases HSV replication in cells | HSV replication augmentation in cells, fold increase | maximum fold increase | 220,000 tested, 0.005% active | AID 1956;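 active = peak rise of 1.5-fold or more in the series; inconclusive = self-fluorescent or not available for retest; tested in PC3 cells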;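 also: first round at 10 µM; read as green reporter fluorescence; hits show the peak of a series up to 25 µM; 1 = signal of infected wells without compound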
Insulin prom inh: TRM-6 insulin promoter activity inhibition. TRM-6 cells (human fetal islet line), insulin promoter-eGFP reporter, imaging; reporter expression induced with tamoxifen. inhibition, % at 2 µM. 130,000 tested, 0.9% active. AID 1273;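 active = inhibition above the mean plus 3 SD, with well images judged a real hit on visual review, cut at about 60% in these data, passing the limit was not always enough; inconclusive = inhibition over the cutoff but images rejected on review; inactive = inhibition not above the cutoff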
RGS16-Gao: modulates binding between human RGS16 and Galphao; binding response (% of control), % at 10 µM; AID 1441; O15492+P09471; 220,000 tested, 0.38% active; bead-based flow cytometry RGS16-Galphao binding, fluorescence; actives lie on both sides;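 active = below 25% or above 175%, edge rows of some plates excepted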;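 also: Galphao activated by GDP with aluminum fluoride before binding; 100% = wells without compound and 0% = beads without RGS; some results beyond the cut were filed as inactive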
GALR2 agonist: agonists of human galanin receptor 2 (GALR2) | O43603 | GALR2-expressing cells, agonist activation read-out | activation, %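 (tested at 5 µM)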 | 140,000 tested, 0.48% active | AID 803;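 active = above mean plus 3 SD of all compounds, about 5% in these data, not always enough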;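 also: 0% = vehicle buffer wells and 100% = reference agonist at full effect; tested in CHO reporter cells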
Insulin prom inh cell count: recorded beside Insulin prom inh, whose call it bears; normalized cell count, %; measured here: cell count, toxicity; reference of the scale not given here;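 cells exposed to compound for 48 h; stained nuclei by imaging scaled within each plate; lower means fewer cells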
HSV replic up primary fold: also measured in HSV replic up; calls as there; fold increase; compound at 10 µM; measured here: primary screen fold increase 10 uM; tested in PC3 cells;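 GFP signal in the first replicate; 1 = infected wells without compound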
* marks the source's active call; other numbers are inactive results; i = inactive; ? = inconclusive; . = not tested or not shown; [ ] = remark or other dose.

SMILES	PKD1 inh	HSV replic up	HSV replic up primary fold	Insulin prom inh	Insulin prom inh cell count	RGS16-Gao	GALR2 agonist
CC(C)OC(=O)C1C2C=CC3(CN(C(C)c4ccc(Br)cc4)C(=O)C13)O2 (configuration not stated)	-8	i	1.1	.	.	71	-4.5
COc1cc(-c2nn3c(-c4ccccc4)nnc3s2)cc(OC)c1OC	-6	i	0.73	.	.	103	0.8
CC(C)OC(=O)CSc1nnc(-c2cccnc2)n1N	7	i	0.87	.	.	99	-0.5
Cc1ccc(NS(=O)(=O)c2cc(C(=O)O)ccc2Cl)c(C)c1	-12	i	0.85	12	49	85	0.7
CC(C)Cc1cc(C(=O)Nc2c(F)cc(F)cc2Br)no1	-12	i	0.96	.	.	101	-2.6
S=c1[nH]ccn1-c1cccc(Cl)c1Cl	.	i	0.88	.	.	102	.
CN(C(=O)CSc1nnc(-c2ccncc2)n1-c1ccccc1)C1CCS(=O)(=O)C1 (configuration not stated)	.	i	0.93	.	.	97	.
O=C(Nc1ccc2c(c1)Cc1ccccc1-2)c1cccnc1	1	i	0.86	.	.	103	.
CCOc1ccc(-n2c(Cc3cc(=O)[nH]c(=O)[nH]3)nnc2SCC(=O)OC)cc1	0	i	0.97	.	.	110	0.3
CCNc1nc(NCC)nc(N(C#N)CCOc2ccccc2)n1	9	i	0.9	-35	131	98	.
O=C1CCCN1CC1CCCN(Cc2nc(COc3ccccc3)no2)C1 (configuration not stated)	0	i	1.2	20	90	165	.
CC1=C(C(=O)N2CCCC(CCC(=O)NCc3ccccc3F)C2)OCCO1 (configuration not stated)	-6	i	0.92	.	.	102	.
CC(C)(C)NC(=O)CCc1nnc(Cc2c[nH]c3ccccc23)o1	-5	i	0.88	26	141	107	.
CC1COc2ccccc2N1S(=O)(=O)c1ccccc1 (configuration not stated)	8	i	0.96	.	.	99	.
C[C@]12CC[C@@H]3c4ccc(O)cc4CC[C@H]3[C@@H]1CC[C@@H]2OC(=O)CCC(=O)O	-5	i	0.91	-52	112	100	-0.3
C=CCn1c(SCC(=O)OC)nc2sc3c(c2c1=O)CCN(C)C3	-12	i	0.99	16	99	97	-0.5
COc1cc(/C=N\NC(=O)c2ccc(Cn3nc([N+](=O)[O-])c(Cl)c3C)o2)ccc1O	5	i	0.95	-21	88	120	-2.0
COc1ccc(NC(=O)C(c2cc3c(cc2[N+](=O)[O-])OCO3)N2CCN(C=O)CC2)cc1 (configuration not stated)	-4	i	1.1	-7	115	95	-1.3
Cc1noc(C)c1COC(=O)c1ccc(F)c(S(=O)(=O)N2CCCCC2)c1	-6	i	0.92	22	124	96	.
COc1ccc(NC(=O)CSc2ncnc3c2sc2ccccc23)c(OC)c1	8	i	0.95	.	.	94	-1.2
COc1ccc(C2CC(=O)C3=C(C2)Nc2ccccc2N(C(=O)C2CC2)C3c2cccnc2)cc1OC (configuration not stated)	3	i	0.96	21	75	105	-1.8
CCCCC(=O)O[C@H]1CC[C@H]2[C@@H]3CCc4cc(O)ccc4[C@H]3CC[C@]12C	-6	i	1.1	-41	122	100	-0.9
CN(C)S(=O)(=O)c1cccn1-c1ncc(C(F)(F)F)cc1Cl	-4	i	1.1	50	104	98	-2.7
O=C(CN(C(=O)c1cccc([N+](=O)[O-])c1)C1CCCCC1)Nc1ccc(Cl)c([N+](=O)[O-])c1	-16	i	0.9	0	144	102	-0.4
CCN(CC)C(=O)Cn1c(=O)n(CCCC(=O)NCc2ccccc2)c(=O)c2sccc21	-6	i	0.87	.	.	101	.
C=CCn1c(N)c(C(=O)OC(C)CC)c2nc3ccccc3nc21 (configuration not stated)	8	i	0.98	-38	75	106	0.2
CC1CCc2c(sc(/N=C/c3cccnc3)c2C(N)=O)C1 (configuration not stated)	.	i	1	.	.	97	.
COc1ccc(S(=O)(=O)n2cnc(C)c2)cc1	-10	i	1	.	.	110	.
CCC(CC)NC(=O)/C=C/c1cccc([N+](=O)[O-])c1	-10	i	0.93	-19	122	109	0.7
CC(C)n1nnnc1SCC(=O)NCc1ccc2c(c1)OCO2	-11	i	0.93	-15	162	106	-1.3
CCN(CC)c1ccc(/C=C(\C#N)C(=O)NCc2ccco2)cc1	-2	?	.	.	.	114	-0.4
CCOC(=O)C(=O)/C(=C\N(C)C)c1onc(-c2ccccc2Cl)c1C(=O)OC	-6	i	0.96	7	105	104	-3.2
Cc1cc(C)cc(NCC(=O)Nc2c(C)cccc2C)c1	-4	i	0.95	-4	153	91	-2.2
CSc1cccc(NS(=O)(=O)c2ccc3c(c2)oc(=O)n3C)c1	-9	i	0.7	.	.	105	-3.0
CC1(C)CC(=O)C(C2C3=C(CC(C)(C)CC3=O)Oc3ccc4ccccc4c32)C(=O)C1 (configuration not stated)	-6	i	0.75	.	.	109	.
Cc1ccc2cc(C)c(N3CCC(C)CC3)nc2c1	7	i	0.99	.	.	99	.
CS/C(=N/S(=O)(=O)c1ccc(C)cc1)c1ccccc1	4	i	0.94	22	62	61	-1.1
CCOc1ccc(N)cc1OC	5	i	0.95	19	120	108	.
O=[n+]1c2c(n([O-])c3c1CCCC3)CCCC2	4	i	0.91	20	93	100	-2.2
COC(=O)c1ccc(Oc2nc(N(C)C)nc(N3CCOCC3)n2)cc1	-10	i	0.99	28	130	112	-0.7
Cc1ccc(N(C(=O)c2sc(C)nc2C)C(C(=O)NCc2ccco2)c2ccccc2)cc1 (configuration not stated)	0	i	0.89	-21	99	96	-0.5
COc1ccc2[nH]c(C(=O)Nc3ccccc3Cl)cc2c1	.	i	0.95	.	.	98	.
O=C(CSCc1ccccc1)N1CCN(C(=O)c2ccco2)CC1	-6	i	0.93	38	103	95	0.2
CN(Cc1ccccc1)c1nc2c(c(=O)[nH]c(=O)n2C)n1CCSc1ncccn1	0	.	.	6	133	.	-2.9
Cc1nnc(SC(C)C(=O)Nc2c(C)n(C)n(-c3ccccc3)c2=O)n1N (configuration not stated)	6	i	1	18	87	101	.
COc1ccc(-n2nnnc2-c2cccc(OC)c2)cc1	-6	i	0.45	-50	12	.	-1.5
CN(CC(=O)Nc1ccc(S(=O)(=O)N(C)C)cc1)Cc1ccc(C(F)(F)F)cc1	0	i	0.95	.	.	90	.
CCCn1c(O)c(N=NC(=O)c2ccco2)c2ccccc21	-3	i	0.85	33	92	120	0.6
NS(=O)(=O)c1ccc(CCNC(=O)c2ccco2)cc1	-5	i	1.1	7	60	100	.
COc1ccc(NC(=O)C2CCC(CNS(=O)(=O)c3cccs3)CC2)cc1OC (configuration not stated)	6	i	0.96	-11	84	103	.
Cc1ccc(N=Nc2ccc(O)c(/C=N\NC(=O)c3ccc(N)cc3)c2)cc1C	3	i	0.73	16	71	69	-2.2
Cc1ccc([N+](=O)[O-])cc1Nc1nc(N2CCOCC2)nc(N2CCOCC2)n1	-2	i	0.92	-62	65	108	.
CC(Sc1n[nH]c(=O)[nH]c1=O)C(=O)OCc1ccccc1 (configuration not stated)	-14	i	1	-25	31	102	-0.8
C[N+](C)(C)CCCN1C(=O)CCCC1=O	-8	i	0.92	16	48	102	-0.1
COCCCNC(=O)c1c(NC(=O)C2COc3ccccc3O2)sc2c1CCCC2 (configuration not stated)	2	i	0.99	87*	56*	10	-0.4
Cc1ccc(S(=O)(=O)NCc2csc(C)n2)c(C)c1	23	i	0.9	-21	131	108	-1.2
O=C(NCC1CCCCC1)c1cc([N+](=O)[O-])ccc1N1CCOCC1	1	i	1	.	.	101	.
CCOC(=O)C1CCCN(c2c(NCCC(C)C)c(=O)c2=O)C1 (configuration not stated)	.	i	1	.	.	106	.
CCCC/C(O)=C1\C(=O)CCCC1=NCCc1c(C)[nH]c2ccc(OC)cc12	.	i	0.83	.	.	100	.
CCOC(=O)C1=NNC2C(=O)N(Cc3ccccc3)C(=O)C12 (configuration not stated)	.	i	1	.	.	90	.

New compounds follow
SMILES	PKD1 inh	HSV replic up	HSV replic up primary fold	Insulin prom inh	Insulin prom inh cell count	RGS16-Gao	GALR2 agonist
Cc1onc(C(=O)N2CCN(C(c3ccccc3)c3ccccc3)CC2)c1[N+](=O)[O-]	-1	.	.	-400	2	108	-0.1
O=C(O)c1cc(=O)[nH]c2c(Cl)cccc12	-5	i	0.98	.	.	108	.
CN(C)c1ccc(-c2noc(-c3ccccc3O)n2)cc1	6	i	0.94	-14	107	102	-1.2
O=C(Oc1ccccc1C(=O)N1CCOCC1)c1cccc(Br)c1	-5	i	0.89	18	134	65	-2.2
CC1CCCN(c2oc(-c3cccc4ccccc34)nc2C#N)C1 (configuration not stated)	-7	i	1	.	.	102	-0.1
CC(=O)C1=C(C)NC(SCC(=O)c2ccc(Cl)cc2)=C(C#N)C1CC(C)C (configuration not stated)	2	i	0.92	40	111	103	-2.0
CC1(C)N=C(c2ccccn2)C(C)(C)N1O	7	i	0.82	11	39	102	-2.0
CCN1CCN(CCCNC(=O)c2cc3cc4ccc(OC)cc4nc3o2)CC1	6	.	.	25	88	101	-1.2
Cn1c(N)c(S(=O)(=O)NCc2ccccc2Cl)c(=O)n(C)c1=O	1	i	1.1	-20	86	114	.
Cc1ccc(Nc2nnns2)cc1C	-9	i	1.1	-27	127	86	-3.0
S=C(NCc1cccnc1)Nc1ccc(Oc2ccccc2)cc1	0	i	0.95	.	.	98	.
COc1cc(NS(=O)(=O)c2ccc(NC(=O)NC3CCCCC3)cc2)nc(OC)n1	-3	i	0.8	28	129	98	-2.9
COc1ccc(CNS(=O)(=O)NCc2ccccc2)cc1OC	-2	i	0.91	.	.	106	.
CCOC(=O)CNNC(=O)Nc1ccc(Cl)c(Cl)c1	-1	.	.	75*	119*	326*[activator]	-1.5
Cc1ccccc1-c1nc(CN2CCC(C(=O)NCc3cccnc3)CC2)c(C)o1	-6	i	0.76	0	88	101	0.2
Fc1ccc(-c2nc(-c3cnccn3)no2)c(Cl)c1	.	i	0.91	.	.	103	.
O=c1c([N+](=O)[O-])c(NC2CCCCC2)c2ccccc2n1-c1ccccc1	1	i	0.91	-161	104	110	-0.2
Cc1ccc(Sc2ncnc3onc(C)c23)cc1	-5	i	1.2	19	92	96	-1.5
CCN(CC)S(=O)(=O)c1cccc(C(=O)N[C@H](C(=O)OCC(=O)NC(=O)NC)C(C)C)c1	5	i	0.97	3	139	101	-1.6
COc1ccc(S(=O)(=O)N2CCN(C(=O)c3cnc(C)cn3)CC2)cc1	-6	i	1	-26	62	106	0.0

16 of these compounds in another layout.
Every second line gives: PKD1 inh, HSV replic up, HSV replic up primary fold, Insulin prom inh, Insulin prom inh cell count, RGS16-Gao, GALR2 agonist
CC1CCCN(c2oc(-c3cccc4ccccc34)nc2C#N)C1 (configuration not stated)
  -7, i, 1, ., ., 102, -0.1
CC(=O)C1=C(C)NC(SCC(=O)c2ccc(Cl)cc2)=C(C#N)C1CC(C)C (configuration not stated)
  2, i, 0.92, 40, 111, 103, -2.0
CC1(C)N=C(c2ccccn2)C(C)(C)N1O
  7, i, 0.82, 11, 39, 102, -2.0
CCN1CCN(CCCNC(=O)c2cc3cc4ccc(OC)cc4nc3o2)CC1
  6, ., ., 25, 88, 101, -1.2
Cn1c(N)c(S(=O)(=O)NCc2ccccc2Cl)c(=O)n(C)c1=O
  1, i, 1.1, -20, 86, 114, .
Cc1ccc(Nc2nnns2)cc1C
  -9, i, 1.1, -27, 127, 86, -3.0
S=C(NCc1cccnc1)Nc1ccc(Oc2ccccc2)cc1
  0, i, 0.95, ., ., 98, .
COc1cc(NS(=O)(=O)c2ccc(NC(=O)NC3CCCCC3)cc2)nc(OC)n1
  -3, i, 0.8, 28, 129, 98, -2.9
COc1ccc(CNS(=O)(=O)NCc2ccccc2)cc1OC
  -2, i, 0.91, ., ., 106, .
CCOC(=O)CNNC(=O)Nc1ccc(Cl)c(Cl)c1
  -1, ., ., 75*, 119*, 326*[activator], -1.5
Cc1ccccc1-c1nc(CN2CCC(C(=O)NCc3cccnc3)CC2)c(C)o1
  -6, i, 0.76, 0, 88, 101, 0.2
Fc1ccc(-c2nc(-c3cnccn3)no2)c(Cl)c1
  ., i, 0.91, ., ., 103, .
O=c1c([N+](=O)[O-])c(NC2CCCCC2)c2ccccc2n1-c1ccccc1
  1, i, 0.91, -161, 104, 110, -0.2
Cc1ccc(Sc2ncnc3onc(C)c23)cc1
  -5, i, 1.2, 19, 92, 96, -1.5
CCN(CC)S(=O)(=O)c1cccc(C(=O)N[C@H](C(=O)OCC(=O)NC(=O)NC)C(C)C)c1
  5, i, 0.97, 3, 139, 101, -1.6
COc1ccc(S(=O)(=O)N2CCN(C(=O)c3cnc(C)cn3)CC2)cc1
  -6, i, 1, -26, 62, 106, 0.0

Screening data from PubChem BioAssay.

Compounds as they come; 1.3% or so of the library scored in one or more.
